MT1-MMP reporter: MT1-MMP gene expression reporter suppression – cell-based, luciferase reporter, luminescence (AID 618); MT1-MMP promoter luciferase reporter cells, luminescence; calls from a first round at 10 µM; hits with a dose series show EC50 in µM; 87,000 compounds, 0.62% hits;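 active = over half of the reporter light lost at 10 µM or EC50 under 50 µM; inactive = the rest and hits that failed the dose series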;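 note: actives suppress MT1-MMP promoter-driven transcription so potencies describe inhibitors; HT1080 fibrosarcoma cells; overnight exposure; toxic or luciferase-blocking compounds were not removed from the actives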
WNV NS2B-NS3 inh: WNV NS2B-NS3 proteinase inhibition | 65,000 compounds, 0.18% hits | z-score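 (tested at a level between 10 and 100 µM)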 | AID 577 | WNV NS2B-NS3 protease, fluorogenic substrate Ex360/Em465; stronger effect = lower value;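 active = z-score at -3 or under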;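 note: score is relative to mean and spread of the compound wells of a plate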
Target sequence (P06935 1371-1501 limits assumed): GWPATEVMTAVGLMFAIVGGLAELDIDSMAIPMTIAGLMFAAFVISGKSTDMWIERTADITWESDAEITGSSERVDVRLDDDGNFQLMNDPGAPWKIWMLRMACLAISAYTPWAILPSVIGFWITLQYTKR
Target sequence (P06935 1502-1679 limits assumed): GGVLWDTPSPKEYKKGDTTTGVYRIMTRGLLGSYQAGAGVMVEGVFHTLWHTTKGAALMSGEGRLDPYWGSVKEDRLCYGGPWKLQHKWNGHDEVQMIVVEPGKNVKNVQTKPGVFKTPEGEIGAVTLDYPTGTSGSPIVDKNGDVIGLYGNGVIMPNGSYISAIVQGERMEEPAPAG
Hsc70 ATP site: small molecules displacing fluorescent ligand from Hsc70 – biochemical, fluorescence polarization, primary screen (AID 568); Hsc70 fluorescence polarization, probe displacement; higher % means a stronger effect; strong numbers were not always called active; displacement, % at 20 µM, or IC50 in µM where a hit was titrated; 83,000 tested, under 10 active;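 active = displacement above 50% without optical interference and an IC50 on retest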;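 note: ATPase domain with a fluorescein-tagged ATP probe; 0% = vehicle and 100% = excess ADP; read after one hour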
* marks the source's active call; other numbers are inactive results; i = inactive; . = no result given; + = active, no number. These rows are one share of the data; count on the stated rates, not on these rows.

Structure,Hsc70 ATP site,WNV NS2B-NS3 inh,MT1-MMP reporter
Cc1cccc(NC(=O)CSc2nnc([C@@H](N)Cc3c[nH]c4ccccc34)o2)c1C,2.6%,-0.67,i
CC(=O)Nc1ccccc1OC(=O)N(C)C,0.2%,0.59,i
Nc1ccccc1N=Cc1c(O)n(CCC2=CCCCC2)c(=O)[nH]c1=O,-12%,0.52,i
CSc1ncc(Cl)c(C(=O)O)n1 (tested in a mixture with another compound),0.8%,.,i
CC(C(N)=O)N1CC(c2ccc(Cl)cc2)CC1=O (centres undefined),1.8%,0.68,i
CCC(C)(C)n1nnnc1CN1CCC(n2c(C)nc3cc(C(F)(F)F)ccc32)CC1,-0.5%,.,i
CCOP(=O)(C#CC(C)(C)C)C(O)(c1ccccc1)C(F)(F)F (centres undefined),-4.8%,0.33,i
COC(=O)C1CN(C#N)N(c2ccc(Cl)cc2)C12c1ccccc1-c1ccccc12 (centres undefined),-6.8%,.,+
CC12CN3CC(c4ccccc4)(CN(C1)C31CCCCC1)C2=O,4.9%,-0.23,i
FC(F)(F)/C(=N\P(=S)(N1CCOCC1)N1CCOCC1)N1CCOCC1,-3.6%,2.7,i
O=C(CCn1c(=O)oc2ccccc21)N1CCC2(CC1)OCCO2,-0.6%,1.3,i
CCCC1(CCC)C(=O)NC(=NCc2ccccc2)NC1=O,1.5%,-0.44,i
CN(C(=O)Oc1cccc2cccnc12)c1ccccc1,2.5%,-0.7,i
CCCC(C)n1[nH]c(=O)c2c1NC(=O)CSC2c1ccc(OC)c(OC)c1 (centres undefined),-3.7%,1.4,i
CC1=CC(=O)C2=C(C)CC(O)C3C(C)C(=O)OC3C12 (centres undefined),-2.2%,-0.57,i

Structure,Hsc70 ATP site,WNV NS2B-NS3 inh,MT1-MMP reporter
Cc1cccnc1-n1c(CN2C(=O)c3ccccc3C2=O)nc2ccccc2c1=O,2.8%,0.06,i
O=C(Nc1cccnc1)c1c(O)c2c(n(Cc3ccccc3)c1=O)CCCC2,2.9%,-0.84,i
COc1cccc(OC)c1C1=NCC(=O)Nc2c1oc1ccc(Br)cc21,-2.2%,-1.5,+
CCCCn1c(O)c(C(CC)=Nc2ccc(OCC)cc2)c(=O)[nH]c1=O,-1.0%,-0.82,i
O=C1C2CCCN2C(c2cccnc2)N1c1cccc(Cl)c1 (centres undefined),1.9%,0.7,i
CN(C)C(=O)Oc1ccc(OC(=O)N(C)C)cc1,-2.9%,-0.29,i
CN1CCC(N(C)c2nc(-c3ccccc3)nc3ccccc23)CC1,-4.1%,-0.65,i
CC(C)n1cc(C(=O)N(CC(=O)NC2CCCC2)Cc2ccccc2)cn1,-1.6%,-1.5,i
c1ccc2oc(N3CCNCC3)nc2c1,-7.1%,-0.93,i
O=C(Cc1ccccc1)OCn1nnc2ccccc2c1=O,-6.1%,-0.16,i
CC(=O)Nc1cc(C(=O)N2CCC3(CC2)OCCO3)ccc1S(=O)(=O)c1ccc(Cl)cc1,1.6%,.,i
CCCCN1CCC(O)(c2ccccc2)C(C(=O)c2ccccc2)C1 (centres undefined),-0.6%,.,i
O=C(c1cc(-c2cccnc2)nc2ccc(Cl)cc12)N1CCC2(CC1)OCCO2,-3.4%,1.2,i
CCC(=NCc1cc(OC)cc(OC)c1)c1c(O)n(C)c(=O)n(C)c1=O,5.1%,.,i
O=C(C1CC(=O)N(C2CCCCC2)C1)N1CCC2(CC1)OCCO2 (centres undefined),2.2%,1.6,i

Structure,Hsc70 ATP site,WNV NS2B-NS3 inh,MT1-MMP reporter
CCCCP(=O)(O)c1ccccc1,-5.3%,-0.74,i
O=c1[nH]c(=O)n(Cc2ccc(F)cc2)c(O)c1C=NCCCn1ccnc1,2.6%,.,i
CC(=O)N1CCC2(CC1)CC(=O)c1cc(OCC(=O)N3CCN(C)CC3)ccc1O2,-3.4%,0.17,i
C=CCn1c(O)c(C(CC)=NCCCO)c(=O)[nH]c1=O,-4.3%,-0.93,i
O=c1c2ccccc2nc(CN2CCCCCC2)n1-c1ccc(F)cc1,-2.0%,-1.1,i
O=C(NC1CC1)C1CSC(c2cccnc2)=N1 (centres undefined),1.9%,0.35,i
O=C(C1CCC(=O)N1C1CCCC1)N1CCC2(CC1)OCCO2 (centres undefined),-0.2%,.,i
CN1CCN(C(=O)Cc2nc3ccccc3[nH]2)CC1,0.0%,-0.74,i
O=C(Cc1ccccc1)Oc1ccccc1N1C(=O)CCC1=O,6.0%,0.91,i
Clc1ccc(COC(Cn2ccnc2)c2ccc(Cl)cc2Cl)cc1 (centres undefined),1.0%,0.41,i
COc1ccc(-n2c(=O)[nH]c3ccccc3c2=O)cc1,2.7%,.,i
Cc1ccc(-n2c(O)c(C=Nc3ccccc3N)c(=O)[nH]c2=O)cc1C,-3.1%,0.85,i
O=C(COc1ccccc1)N1CCN(C2CC3CCC2C3)CC1 (centres undefined),6.2%,.,i
c1ccc(C2CC3CC4(CCCC4)N2O3)cc1 (centres undefined),1.5%,1.3,i
Cc1nn(C2CCOC(C)(C)C2)c2c1C(c1ccc3c(c1)OCO3)SCC(=O)N2 (centres undefined),5.1%,-0.12,i

Structure,Hsc70 ATP site,WNV NS2B-NS3 inh,MT1-MMP reporter
O=C(CCc1nc(-c2ccccc2F)no1)N1CCC2(CC1)OCCO2,-4.4%,-0.59,i
CCCCC1(CN2CCCC2=O)C(=O)NC(=O)NC1=O,-4.3%,-0.45,i
CN(C)c1ccc(CN2CC=C(c3ccc(F)cc3)CC2)cc1,3.3%,-0.74,i
Cc1ccc2c(c1)C1CN(C)CCC1N2C(=O)Cn1cnc2c1c(=O)n(C)c(=O)n2C (centres undefined),5.7%,-0.4,i
CCN(CC)CCCC(C)N=C(c1ccccc1)c1c(O)n(C)c(=O)n(C)c1=O (centres undefined),1.2%,0.28,i
COc1ccccc1CN1CCCCC1c1cccnc1 (centres undefined),-1.7%,0.07,i
CC1(C)CC2(CCO1)NCCN1C(=O)CSC12 (centres undefined),-12%,1.6,i
CC(C)CCn1c(=O)c(C(=O)Nc2ccccc2S(N)(=O)=O)c(O)c2ccccc21,1.2%,.,i
Cc1ccc(C)c(C2(O)CC(C)N(C)CC2C)c1 (centres undefined),-2.3%,-0.67,i
COc1ccccc1-n1c(O)c(C=NCc2ccc3c(c2)OCO3)c(=O)[nH]c1=O,-9.3%,0.52,i
CCOCCN1CCC(OC(C)=O)C(C)C1 (centres undefined),-0.4%,0.5,i
CSCCC(N=Cc1c(O)n(-c2ccc(Cl)cc2)c(=O)[nH]c1=O)C(=O)OC(C)(C)C (centres undefined),-1.7%,.,i
CC(C)CCNC(=O)c1c(N)n(CC2CCCO2)c2nc3ccccc3nc12 (centres undefined),-2.3%,.,i
O=c1[nH]c(=O)n(Cc2ccccc2)c(O)c1C=NCCCO,-36%,-0.37,i
CCOc1cccc(C2NCc3ccccc3-n3cccc32)c1O (centres undefined),2.0%,0.55,i

Structure,Hsc70 ATP site,WNV NS2B-NS3 inh,MT1-MMP reporter
CCc1ccc(OCCCN=C(C)c2c(O)n(C)c(=O)n(C)c2=O)cc1,-2.9%,-0.9,i
CN1CCN(CC(=O)Nc2ccc(Cl)cc2C(=O)c2ccccc2)CC1,2.1%,-0.02,i
Cc1nc2cc(C(F)(F)F)ccc2n1C1CCN(Cc2nnnn2Cc2cccs2)CC1,4.7%,-1,i
COc1cccc(OCC(=O)N2CCN(C)CC2)c1,-0.2%,0.36,i
Nc1ncc(P(=S)(N2CCOCC2)N2CCOCC2)s1,-2.9%,-0.75,i
Cc1sc2ncn(CC(=O)N3CCC4(CC3)OCCO4)c(=O)c2c1C,-6.6%,-0.97,i
N#Cc1cc2c(nc1SCC(=O)Nc1ccc(Cl)cc1)C1CCN2CC1,0.2%,-0.88,i
O=C1NCCN2CCCC12 (centres undefined),-1.6%,-0.47,i
Cc1nnc2n1-c1ccc(Cl)cc1C(c1ccccc1)=NC2,-0.4%,.,i
COc1ccc2c(c1)c(C(=O)O)c(C)n2CC(C)C,5.0%,0.98,i
CCCCn1c(O)c(C(CC)=NCc2cc(OC)cc(OC)c2)c(=O)[nH]c1=O,2.7%,.,i
Cc1cc(OCC(=O)OC(C)C)c2c3c(c(=O)oc2c1)CCCC3,-7.5%,-0.19,i
C=CCOC(=O)C1=C(C)OC(N)=C(C(=O)OCC)C12C(=O)N(CC(N)=O)c1ccccc12 (centres undefined),-1.6%,1.5,i
O=C(COc1ccc(Br)cc1)N1CCN(C2CCCC2)CC1,1.2%,-0.38,i
Cc1ccc(Cn2c(C)c3cnn(CC(=O)N4CCC5(CC4)OCCO5)c(=O)c3c2C)cc1,-0.1%,0.66,i

Rewritten with two lines to a compound: three of the compounds above
The line under a structure holds: Hsc70 ATP site	WNV NS2B-NS3 inh	MT1-MMP reporter
Cc1sc2ncn(CC(=O)N3CCC4(CC3)OCCO4)c(=O)c2c1C
→ -6.6%	-0.97	i
N#Cc1cc2c(nc1SCC(=O)Nc1ccc(Cl)cc1)C1CCN2CC1
→ 0.2%	-0.88	i
O=C1NCCN2CCCC12 (centres undefined)
→ -1.6%	-0.47	i

(listing goes on)
Structure,Hsc70 ATP site,WNV NS2B-NS3 inh,MT1-MMP reporter
CC(=O)Nc1ccc(OC(=O)N(C)c2ccccc2)cc1,0.9%,0.92,i
CCCCn1c(O)c(C(C)=NCCN2CCCCC2)c(=O)[nH]c1=O,6.2%,0.18,i
O=c1[nH]c(=O)n(C2CCCCCC2)c(O)c1C=NCCCN1CCOCC1,3.7%,-1.5,i
CN(C)C1(c2nnnn2CCOC(=O)Nc2ccc(Cl)cc2)CCCCC1,3.8%,2.7,i
CC(=NCC1CCCO1)c1c(O)n(-c2ccc(Cl)cc2)c(=O)[nH]c1=O (centres undefined),2.0%,1.9,i
CCCSP1(=S)NCCCO1 (centres undefined),-2.4%,-0.77,i
CN1CCN(CCC(C#N)(c2ccccc2)c2ccccc2)CC1,3.5%,-0.29,i
Cn1c(C(=O)O)c(CC(=O)N2CCN(Cc3ccccc3)CC2)c2ccccc21,0.7%,-0.13,i
CCN(c1ccc(C(O)(C(=O)OC)C(F)(F)F)cc1)S(=O)(=O)c1ccccc1 (centres undefined),-3.0%,-0.63,i
COc1ccc2c(c1)c(C(=O)O)c(C)n2C(C)C,-2.2%,.,i
COc1ccc(C(CC(=O)N2CCC3(CC2)OCCO3)NS(=O)(=O)c2ccc(C)cc2)cc1 (centres undefined),-1.4%,-0.04,i
O=C(Cc1ccccc1)N1CCN(C2CCCC2)CC1,3.8%,-0.43,i
CC(C)N1C(=O)CCC1C(=O)N1CCC2(CC1)OCCO2 (centres undefined),4.6%,.,i
Cc1cccc(-n2c(O)c(C=NCCCN3CCOCC3)c(=O)[nH]c2=O)c1C,0.2%,-0.01,i
OC1(c2ccccc2F)CC2CCC(C1)N2CCN1CCOCC1 (centres undefined),3.9%,0.31,i

Structure,Hsc70 ATP site,WNV NS2B-NS3 inh,MT1-MMP reporter
CCOc1ccc(N=C2SCCCN2C)cc1,0.6%,.,i
CCC(=NCc1ccco1)c1c(O)n(-c2ccccc2)c(=O)[nH]c1=O,-3.9%,-0.99,i
Cc1ccccc1-n1c(O)c(C=Nc2ccc3c(c2)OCO3)c(=O)[nH]c1=O,-5.3%,-1.3,i
CN(C)CCN=Cc1c(O)n(C2CCCCCC2)c(=O)[nH]c1=O,-1.6%,-0.31,i
CC(C)N1CCC2(CC1)NC(CO)(CO)CO2,6.1%,-0.41,i
COC1=CC(=O)OC(/C=C/c2ccccc2)C1 (centres undefined),1.0%,0.38,i
O=P(/C(=N/O)N1CCOCC1)(N1CCOCC1)N1CCOCC1,1.2%,-0.01,i
COc1ccc(P2(=O)Nc3ccccc3N2)cc1,8.0%,-1.5,i
CCC(=NCc1ccco1)c1c(O)n(-c2ccc(C)cc2)c(=O)[nH]c1=O,-6.3%,.,i
Cc1cccc(C)c1NC1=NCCCS1,-3.3%,-0.74,i
CCCC(C)C1C(C#N)=C(N)Oc2c1c(=O)oc1ccccc21 (centres undefined),1.1%,-0.28,i
C#C[C@]1(O)CC[C@H]2[C@@H]3CCC4=CC(=O)CC[C@]4(C)[C@H]3CC[C@@]21C,-2.8%,-1,i
Cc1cc(OCC(=O)Nc2cc(C)nn2-c2ccccn2)c2c3c(c(=O)oc2c1)CCC3,-11%,-0.39,i
CC(C)CC(NC(=O)C1CCCCC1)C(=O)N1CCC2(CC1)OCCO2 (centres undefined),-1.2%,-0.91,i
O=C(CCS(=O)(=O)c1ccc(Br)cc1)N1CCC2(CC1)OCCO2,1.2%,-0.56,i

Structure,Hsc70 ATP site,WNV NS2B-NS3 inh,MT1-MMP reporter
COC(=O)c1ccc(CN2CCN(Cc3ccccc3)CC2)cc1,-7.2%,-0.24,i
Cc1c(C(=O)N2CCC3(CC2)OCCO3)oc2ccccc12,-2.6%,-0.49,i
Cc1ccccc1-n1c(-c2ccco2)nc2ccccc2c1=O,0.8%,.,i
C=CCNC(=O)c1c(N)n(Cc2ccco2)c2nc3ccccc3nc12,0.5%,.,i
O=C1C2CCCN2C(c2cccs2)N1c1ccccn1 (centres undefined),0.8%,0.87,i
Cn1c(O)c(C=Nc2ccc3c(c2)CCC3)c(=O)n(C)c1=O,-8.0%,-1.2,i

Screening data as filed in PubChem BioAssay.
